miR-21 FLuc: raises the signal of a miR-21 reporter; HeLa miR-21 FLuc reporter, luciferase, 48 h; Potency, µM (top dose mostly 38.3 µM), without a hit: at the top dose reporter change, positive = more light; 340,000 tested, under 10 active; AID 2288; active = well fitted rising curve with a large enough effect; inconclusive = small, poorly fitted or top-dose-only effect; inactive = no such curve, though single readings can be large or run the other way;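 note: % of control where 0% means no effect; miR-21 action dims this reporter so a rising signal means less miR-21 action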
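Compounds were titrated across several concentrations (up to approximately 40 uM) and incubated 48 hours with HeLa miR-21-FLuc reporter cells (miR-21 target sequence downstream of FLuc, endogenous miR-21). Readout was firefly luciferase luminescence after lytic detection reagent.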
* = called active by the depositor; u = inconclusive; [ ] = dose if it differs, or a comment. This is a subset; rates above refer to the full screens.

SMILES | miR-21 FLuc
CCOC(=O)c1c(NC(=O)C(C)Sc2cn(CCNC(=O)c3c(F)cccc3F)c3ccccc23)sc2c1CCC2 (stereo not drawn) | 7%
COc1ccc(OC)c(CNC(=O)CCc2c(C)nc3c(c2C)c(=O)n(C)c(=O)n3C)c1 | -3%
COc1ccc([C@]23Cc4ccccc4C(O2)c2c(cc(C)n(Cc4ccccc4)c2=O)O3)cc1 | 0%[7.66 µM]
Cc1cccc(-c2noc(-c3ccc(N4CCOCC4)c([N+](=O)[O-])c3)n2)c1 | -2%
Cc1ccc(Cl)cc1N(C)C(=O)c1cc2c(Cl)nc3ccccc3c2s1 | -6%
COc1ccc(CCNC(=O)CSc2nnc(-c3ccco3)c(-c3ccco3)n2)cc1OC | 3%
Cc1ccc(CNC(=O)c2ccc(-n3cnc4cccnc43)cc2)cc1 | 18%
COc1ccc2c(c1)CCc1sc(NC(=O)c3cccc(Br)c3)nc1-2 | 1%
CCOC(=O)c1cc(NC(=O)c2ccc(F)cc2)c(=O)n2c1oc1ccccc12 | -9%
CC(=O)c1ccc(N2CCN(c3ccc(NC(=O)c4cccs4)cc3C(=O)O)CC2)cc1 | -6%
COc1ccccc1N1CCN(c2nc(-c3ccc(C)cc3)nc3ccccc23)CC1 | -1%
CCc1cnc2c(c1SC(C(C)=O)C(=O)N(C)C)c(=O)n(C)c(=O)n2C (stereo not drawn) | 5%
Cc1ccc(-c2cn3c(n2)sc2cc(C(=O)NC4CCCc5ccccc54)ccc23)cc1 (stereo not drawn) | -4%
COc1ccc(-c2nnc(SCC(=O)Nc3cccc(C(F)(F)F)c3)nc2-c2ccc(OC)cc2)cc1 | 9%
CCC(=O)Nc1ccc2nc(SCCOc3cccc(C)c3)sc2c1 | -8%

Some of the entries so far, field by field.
Cc1cccc(-c2noc(-c3ccc(N4CCOCC4)c([N+](=O)[O-])c3)n2)c1
  miR-21 FLuc = -2%

Cc1ccc(Cl)cc1N(C)C(=O)c1cc2c(Cl)nc3ccccc3c2s1
  miR-21 FLuc = -6%

The list continues:
SMILES | miR-21 FLuc
CCOc1ccc(NC(=O)CSc2nc(-c3ccc(F)cc3)cc(C(F)(F)F)c2C#N)cc1 | 6%
Cc1ccc(C(=O)NCCC(C)C)cc1NC(=O)c1nsc2ccccc12 | -23%
CCS(=O)(=O)N1CC(=O)N(c2cccc(Cl)c2)C(C)(C(=O)NC2CCCCCC2)C1 (stereo not drawn) | -13%
O=C(Cn1c(-c2cccs2)cc2ccccc21)NCCc1ccc(Cl)cc1 | 1%
COc1ccc(NC(=O)C2CCCN2S(=O)(=O)c2ccc3nc(-c4ccccc4)[nH]c3c2)cc1 (stereo not drawn) | -2%
CCOc1ccccc1NC(=O)CSc1nc(-c2cccs2)cc(C(F)(F)F)n1 | -4%
CC(=O)c1cccc(Nc2ncnc3c2cnn3-c2cccc(Cl)c2)c1 | -27%
COc1ccccc1CNC(=O)CN1N=C(c2ccccc2)CCC1=O | -7%
CCOc1ccc(NC(=O)C2CCN(C(=O)N3CC(C)Oc4ccc(Cl)cc43)CC2)cc1 (stereo not drawn) | -18%
COc1cc(-c2nc3ccc(Cl)cn3c2Nc2ccc3c(c2)OCO3)ccc1O | 16%
Cc1ccc(Nc2nnc(-c3ccc(C)c(S(=O)(=O)NCc4nc5ccccc5[nH]4)c3)c3ccccc23)cc1 | 11%
Cc1ccc(CNC(=O)c2sc3nc4n(c(=O)c3c2C)CCCC4)cc1 | 23%
Cc1ccc(CNC(=O)C2CCCN(c3nc4ccccc4n4cccc34)C2)cc1 (stereo not drawn) | 1%
CC(C)NC(=O)CSc1cn(CC(=O)N2CCCCCC2)c2ccccc12 | -3%
COc1ccc(Br)cc1CC1C(=O)Nc2ccccc21 (stereo not drawn) | 24%
COc1cccc(Oc2nc(C)nc3c2oc2ccccc23)c1 | -11%
Cc1cc(NS(=O)(=O)c2ccc(NC(=O)COc3ccc(Br)cc3C)cc2)no1 | -21%
CCOc1ccc(CNC(=O)CCS(=O)(=O)c2cc3c(cc2Cl)NC(=O)CO3)cc1OC | -8%
COc1ccc(NS(=O)(=O)c2cc(Br)cc3c2N(C(=O)C2CC2)CC3)cc1OC | 0%
CCOc1ccccc1NC(=O)C(CC(C)C)NS(=O)(=O)c1ccc2c(c1)CCN2C(C)=O (stereo not drawn) | -3%
COc1ccc(CC(=O)Nc2cc(-c3cn4cccnc4n3)ccc2C)cc1OC | 21%
CC(=O)C1=C(c2ccc(Br)cc2)N(C(C)=O)n2c(nnc2C2CCCCC2)S1 | -1%
O=C(Nc1cccc(-c2nc3cc(Cl)ccc3o2)c1)c1cc([N+](=O)[O-])ccc1N1CCOCC1 | -32%
CC(=O)Nc1ccc(NC(=O)C(Cc2ccccc2)NS(=O)(=O)c2ccc3c(c2)oc(=O)n3C)cc1 (stereo not drawn) | -2%
O=C(Nc1ccc(Cl)c(-c2nc3cc(Cl)ccc3o2)c1)c1cc([N+](=O)[O-])ccc1N1CCOCC1 | -12%
Cc1cc(C)c2c(CC(=O)Nc3ccccc3C(F)(F)F)coc2c1 | 0%
CCOC(=O)CSc1nc2ccccc2c(=O)n1-c1cccc(C)c1 | -5%
COc1ccc(N(C(=O)c2ccc(OC)c(OC)c2)S(=O)(=O)c2ccc(Cl)cc2)cc1 | 3%
COc1cc2ccccc2cc1C(=O)Nc1cccc(-c2nc3ccccc3o2)c1 | -10%
O=c1c2sccc2n(Cc2cc(=O)n3cc(Cl)ccc3n2)c(=O)n1-c1ccccc1 | -19%
COc1ccc(F)cc1S(=O)(=O)NCCc1csc(-c2ccc(Cl)cc2)n1 | 9%
Cc1c(-c2nsc(NC(=O)c3cccs3)n2)nnn1-c1ccc(F)cc1 | -81%
Cc1cc(Nc2ccccc2F)n2nc(Cc3ccc(Cl)cc3)nc2n1 | -5%
CCCCOc1ccc(C2=NC(c3cccs3)=Nc3ccc(CC)cc3N2)cc1 | -5%
COc1ccccc1N1CCN(c2ccc(=O)n(CC(=O)Nc3cc(F)ccc3C)n2)CC1 | 2%
COc1ccc(S(=O)(=O)c2c(SC)nn(Cc3ccccc3C)c2NC(C)=O)cc1 | -2%
O=C(Nc1ccccc1Br)C1CCCN(S(=O)(=O)c2cccc3nsnc23)C1 (stereo not drawn) | 9%
COc1ccc(OC)c(C2NC(=O)NC(C)=C2C(=O)Nc2ccc(F)cc2)c1 (stereo not drawn) | 1%
COc1cc(CN2CCN(S(=O)(=O)c3ccc(NC(C)=O)cc3)CC2)cc(OC)c1OC | 4%
COc1cc(C(=O)NCc2ccc3c(c2)CCN3C(=O)c2ccc(Cl)cc2)cc(OC)c1OC | 17%
CC(=O)c1cccc(NC(=O)CCS(=O)(=O)c2ccc3c(c2)n(C)c(=O)c(=O)n3C)c1 | 0%
Cc1ccc2nc(-c3ccc(NC(=O)COc4ccccc4C(C)(C)C)cc3)sc2c1 | -78%
CCOC(=O)c1cccc(NC(=O)c2cc3c(=O)n(Cc4cccnc4)ccc3nc2C)c1 | -1%
Cc1ccc(NC(=O)c2cc(-c3cccs3)nc3ccccc23)c(C)c1 | 0%
CCC(=O)C1=C(c2cccc(OC)c2)N(C(=O)CC)n2c(nnc2C2CCCCC2)S1 | u

Not a retest: six of the compounds above.
SMILES | miR-21 FLuc
COc1ccc(F)cc1S(=O)(=O)NCCc1csc(-c2ccc(Cl)cc2)n1 | 9%
Cc1c(-c2nsc(NC(=O)c3cccs3)n2)nnn1-c1ccc(F)cc1 | -81%
Cc1cc(Nc2ccccc2F)n2nc(Cc3ccc(Cl)cc3)nc2n1 | -5%
CCCCOc1ccc(C2=NC(c3cccs3)=Nc3ccc(CC)cc3N2)cc1 | -5%
COc1ccccc1N1CCN(c2ccc(=O)n(CC(=O)Nc3cc(F)ccc3C)n2)CC1 | 2%
COc1ccc(S(=O)(=O)c2c(SC)nn(Cc3ccccc3C)c2NC(C)=O)cc1 | -2%

More structures:
SMILES | miR-21 FLuc
CCOC(=O)c1ccc(NS(=O)(=O)c2cc(-c3onc(C)c3C)ccc2C)cc1 | -15%
CCOc1ccc(CCNC(=O)Cn2ncc3c(=O)oc4ccc(C)cc4c32)cc1 | -1%
Cc1nc(N2CCCC2)c2c(C(=O)Nc3ccc(C)c(Cl)c3)c(C)oc2n1 | -8%
CCNS(=O)(=O)c1ccc(NC(=O)CSc2nc(-c3ccco3)cc(C(F)(F)F)n2)cc1 | 25%
COc1ccc(-c2cc(C(F)(F)F)n3nc(C(=O)Nc4ccccc4SC)cc3n2)cc1OC | 0%
CC(=O)Nc1ccc(C)cc1-c1nc2ccccc2n(CC(=O)c2ccc(C)c(C)c2)c1=O | -1%
Cc1cccc(N(C)S(=O)(=O)c2cc3c(cc2Cl)NC(=O)CO3)c1 | 3%
CC(=O)c1ccc(NC(=O)c2ccc3c(c2)N(Cc2cccc(Cl)c2)C(=O)c2ccccc2S3(=O)=O)cc1 | -9%
CCOC(=O)Cn1c(=O)oc2cc(S(=O)(=O)N3CCC(C(=O)OCC)CC3)ccc21 | -1%
COc1ccc(NC(=O)Cn2c(SCc3cccc(Cl)c3)nc3ccncc32)c(OC)c1OC | 0%
CCCC1=Nc2cc(C(=O)NCCc3ccccc3)ccc2Sc2ccc(C)cc21 | 22%
Cc1ccc(C(=O)c2cn(Cc3ccccc3F)c3cc4c(cc3c2=O)OCCO4)cc1 | -4%
Cc1ccc(S(=O)(=O)N2CCc3cc(C(=O)Nc4ccc(C(F)(F)F)cc4)ccc32)cc1 | 10%
CCCCC(=O)Nc1nnc(SCc2cc(=O)n3cc(C)ccc3n2)s1 | 3%
CC1CCN(C(=O)Cn2c(-c3cccs3)cc3cc(Cl)ccc32)CC1 | 0%
CCOc1ccc(-n2c(=O)c3c4c(sc3n(CC(=O)Nc3cccc(C(F)(F)F)c3)c2=O)CCCCC4)cc1 | -1%
CCOC(=O)C1=C(CN2CCN(c3cccc(OC)c3)CC2)NC(=O)NC1c1ccc(OC)cc1 (stereo not drawn) | 6%
COc1ccc(NC(=O)c2cc3c(=O)n(Cc4cccs4)ccc3nc2C)cc1 | 11%
CCN(CC)C(=O)Cn1c(=O)cc(C)c2c(C)nn(-c3ccc(C)cc3)c21 | 2%
CCCCOc1ccccc1C(=O)Nc1nonc1-c1ccccc1 | 0%
COc1cccc(N2CCN(C(=O)c3cccc(-n4c(C)nc5cccnc54)c3)CC2)c1 | 26%
O=C(CN1C(=O)COc2ccc(S(=O)(=O)N3CCCC3)cc21)N1CCN(c2ccccc2)CC1 | -4%
COc1ccc(CCNC(=O)CCn2c(=O)c3ccccc3n(CC(=O)Nc3ccccc3F)c2=O)cc1OC | -2%
O=C(CSc1nc2c([nH]c3ccccc32)c(=O)n1-c1ccccc1F)Nc1ccccc1C(F)(F)F | 23%
COc1ccc(CNC(=O)C(=O)Nc2ccc(OC)cc2OC)cc1 | -8%
CCCN(C(=O)Cn1cnc2onc(-c3ccc(F)cc3)c2c1=O)c1cccc(Cl)c1 | 1%
Cc1ccc(-c2noc(-c3ccc(NCC4CCCO4)c([N+](=O)[O-])c3)n2)cc1 (stereo not drawn) | -11%
Cc1ccccc1C(=O)Nc1nnc2n1CCS2 | -36%
Cc1ccc2[nH]c3c(=O)n(CC(=O)NC(C)C)ncc3c2c1 | -1%
COc1ccc(CNC(=O)c2ccc3c(c2)nc2n3CCCCC2)c(OC)c1 | -38%
COc1ccc(C(=O)Oc2c(Sc3ccc(C)cc3)c(C)nn2C(C)(C)C)cc1OC | u
CCC(CC)C(=O)OCc1cc(=O)n2nc(C3CCCCC3)sc2n1 | -32%
CC(C)Oc1ccc(CNC(=O)C2CCN(C(=O)N3CC(C)Oc4ccccc43)CC2)cc1 (stereo not drawn) | u
O=C(CN1C(=O)C2(SCC(=O)N2c2ccc(F)c(F)c2)c2ccccc21)NCCc1ccccc1 (stereo not drawn) | -1%
COc1ccc(C(=O)NCCn2cc(SCC(=O)Nc3ccc(C)cc3)c3ccccc32)cc1 | u
Cn1c(=O)n(C)c2cc(N3CCOCC3)c(NC(=O)c3ccc(Cl)cc3)cc21 | 2%
COc1cc2c(cc1OC)C(COc1ccccc1OC)N(C(=O)c1ccccc1OC)CC2 (stereo not drawn) | -4%
CC(C)Cc1nn2c(=O)cc(COC(=O)c3cccc(NC(=O)c4cccs4)c3)nc2s1 | 4%
Cc1oc2ncnc(N3CCCCC3)c2c1C(=O)NCC1CCN(Cc2ccccc2F)CC1 | -3%
COc1cccc(-c2nnc3sc(CN4CCCCC4)cn23)c1 | 14%
Cc1nn(-c2ccccc2)c(OC(=O)c2ccc(Br)cc2)c1S(=O)(=O)c1ccccc1 | 2%
CCOc1ccc(S(=O)(=O)N(CC(=O)NCCc2ccc(OC)c(OC)c2)c2ccccc2)cc1 | 12%
CC(C)Cn1c(=O)c2ccccc2n2c(CCC(=O)N3CCN(c4ccccc4F)CC3)nnc12 | 1%
COc1ccc(CN(C(=O)c2ccc(OCC(C)C)cc2)C2CCS(=O)(=O)C2)cc1 (stereo not drawn) | 22%
CCOc1ccccc1NC(=O)Cn1c(=O)n(-c2cccc(C)c2)c(=O)c2c1c1cc(OC)ccc1n2C | -3%
CC(C)OCCCNC(=O)Cn1c(-c2cccs2)cc2cc(F)ccc21 | 18%
CCCCOC(=O)c1ccc(NC(=O)c2cc3c(=O)n4cccc(C)c4nc3n2C)cc1 | -24%
Cc1cccc(C(=O)Nc2ccc3oc(-c4cccc5c(Br)cccc45)nc3c2)c1 | 1%
O=C(c1ccc(Br)s1)N(Cc1cccnc1)c1nc2ccc(F)cc2s1 | 0%

Screening results deposited in PubChem BioAssay by National Center for Advancing Translational Sciences (NCATS).
